Screening results as filed in PubChem BioAssay.
EPAC1 agonist = validation of human EPAC1 agonists; EPAC1 Rap1b BODIPY-GDP exchange, fluorescence; Potency, µM, for the others: max response, positive = active, most hits filed as activators; 16,000 compounds, 1% hits; active = well fitted activation curve with a large enough effect; inconclusive = small, poorly fitted or top-dose-only effect; inactive = no such curve, though single readings can be large or run the other way;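 note: nearly all actives have a fitted effect of over 70% in size; series mostly up to about 76 or 150 µM; scaled to a cAMP control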
Calls only; ? = inconclusive. % is set by controls: 0 for no effect and ±100 for the full control effect; potency is the fitted concentration of half-maximal effect. This is a subset; rates above refer to the full screens.

SMILES	EPAC1 agonist
CCC1C(=O)OCC1Cc1cncn1C (centres undefined)	?
